Source: PubChem (several laboratories)
Sa ugtP lethal: growth inhibition of S. aureus ugtP deletion strain; S. aureus RN4220 ugtP deletion, OD600 growth, 16 h; some inactives read as strong as hits; actives 0.54% (n = 330,000); growth inhibition, % (no concentration beside the values);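 active = z-score under -3 and OD600 up to 0.15 on both plates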;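 also: plate controls were untreated wells for no effect and antibiotic for full effect; wells of about 80 µL received 100 nL stock; the first replicate is given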
PrP 5UTR inh: inhibition of PrP 5' UTR reporter expression | cell-based PrP 5' UTR mRNA reporter, plate reader | inhibition, % (test concentration not listed) | actives 0.35% (n = 340,000) | AID 488862;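 active = every replicate at 50% or more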;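 also: 0 = median of the neutral control wells; tested in H4 reporter cells; numbers are from one replicate; inactives centre near -14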
BJeLR lethal: BJeLR cell viability loss. actives 0.17% (n = 300,000). BJeLR (HRASV12) viability, CellTiter-Glo ATP luminescence, 48 h; reference of the scale not given here. inhibition, % (test concentration not listed);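 active = replicate mean above 50%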;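 also: 50 nL library stock added to about 25 µL; numbers are from one replicate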
RN4220 kill: kills Staphylococcus aureus RN4220 | AID 1259311 | S. aureus RN4220 growth, OD600, 16 h | inhibition, % (concentration not given with the values) | actives 0.33% (n = 330,000);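 active = z-score of -3 or lower and OD600 up to 0.18 on both plates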;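 also: plate controls were untreated cells for no effect and reference antibiotic for full effect; stock transfer was 100 nL into about 80 µL; one replicate is shown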
Autofluor counter: compound fluorescence in toxin protease inhibitor counterscreen; compound autofluorescence counterscreen, microsphere flow cytometry; hits give high values; fluorescence intensity (concentration not given with the values); actives 3.1% (n = 360,000);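 active = at least 3 SD above the mean of all compounds, about 16000 in these data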;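 also: 100 nL of 1 mM stock went into each well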
Mtb hypoxia rep: reduces hypoxia-regulated biosensor signal in M. tuberculosis | fluorescence inhibition, % (no concentration beside the values) | M. tuberculosis hypoxia-regulated fluorescent reporter, fluorescence | actives 0.1% (n = 300,000) | AID 1159583;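 active = 35 to 45% if threefold the growth effect, above 45% if 1.5-fold the growth effect; inactive = the rest, general growth blockers included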;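 also: wells of about 50 µL received 100 nL stock; 0% = vehicle wells and 100% = reference inhibitor wells; whole bacteria with a GFP reporter of the hypoxia response; strong numbers were not always called active; many hits fall short of the cut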
Mtb hypoxia rep growth: further read-out of Mtb hypoxia rep, marked with its call; growth inhibition, %; measured here: M. tuberculosis growth (absorbance);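 0% = vehicle and 100% = reference antibiotic; read after six days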
Numbers without * were called inactive; · = no result given.

structure	Sa ugtP lethal	PrP 5UTR inh	BJeLR lethal	RN4220 kill	Autofluor counter	Mtb hypoxia rep	Mtb hypoxia rep growth
CN(C)C(=O)CN1C(=O)C2CCCCN2C(=O)c2ccccc21 (stereo not drawn)	2	-5	4	-1.4	3334	·	·
Cc1nn(-c2nc3ccccc3[nH]2)c(N)c1-c1ccccc1	43	-140	5	-9.3	4384	·	·
CCCc1c(C(=O)N/N=C/c2ccccc2C(F)(F)F)nnn1-c1nonc1N	·	-26	0	·	5261	·	·
Cc1ccc2c(c1)N(C(=O)CCC(=O)NCCCN1CCN(C)CC1)CC(C)O2 (stereo not drawn)	4	2	5	5.0	5796	3	4
O=c1c2ccccc2nc(CSc2nnnn2-c2ccccc2)n1-c1cccc(C(F)(F)F)c1	15	-14	-5	17	6995	2	-1
COc1ccccc1C(=O)NC(=Cc1ccccc1)C(=O)Nc1ccc(C(=O)O)cc1	2	·	·	3.6	·	3	-3
COc1ccccc1NS(=O)(=O)c1cc(NC(=O)C2CCCC2)ccc1N1CCOCC1	2	-13	-5	-2.1	3492	11	4
Cc1c(C)c2ccc(OCC(=O)c3ccccc3)cc2oc1=O	4	-24	5	3.7	3115	-3	-1
Nc1nonc1-c1nc2ccccc2n1Cc1ccc(Cl)cc1	-6	4	7	-2.1	7708	-1	-4
CCOCCOC(=O)NCCCCCCNC(=O)OCCOCC	0	-16	-7	1.6	6233	5	12
Cc1cc(NS(=O)(=O)c2ccc(NC(=O)Nc3cccc(Cl)c3)cc2)no1	-10	-23	7	3.9	9992	14	12
CC/C(=N\NC(=O)c1nnn(-c2nonc2N)c1-c1ccc2c(c1)OCO2)c1ccccc1	·	-7	-8	·	5653	·	·

Complete entries, quoted from the list.
Cc1c(C)c2ccc(OCC(=O)c3ccccc3)cc2oc1=O across the screens: Sa ugtP lethal = 4; PrP 5UTR inh = -24; BJeLR lethal = 5; RN4220 kill = 3.7; Autofluor counter = 3115; Mtb hypoxia rep = -3; Mtb hypoxia rep growth = -1
CN(C)C(=O)CN1C(=O)C2CCCCN2C(=O)c2ccccc21 (stereo not drawn) across the screens: Sa ugtP lethal = 2; PrP 5UTR inh = -5; BJeLR lethal = 4; RN4220 kill = -1.4; Autofluor counter = 3334; Mtb hypoxia rep = ·; Mtb hypoxia rep growth = ·

The list goes on:
structure	Sa ugtP lethal	PrP 5UTR inh	BJeLR lethal	RN4220 kill	Autofluor counter	Mtb hypoxia rep	Mtb hypoxia rep growth
C=C1C(C(=O)N2CCOCC2)C1C(=O)N1CCOCC1 (stereo not drawn)	5	-10	1	1.7	12398	4	3
CN1CCN(C(=O)c2cc3c(n(-c4ccccc4)c2=O)CC(C)(C)CC3=O)CC1	6	-7	-9	6.9	3354	-2	1
N#CC1=C(N)Oc2cc(O)ccc2C1C1CCCCC1 (stereo not drawn)	-11	-17	13	-2.8	4808	·	·
Cc1c(CC(=O)N2CCC(C(N)=O)CC2)c(=O)oc2cc3c(cc12)CCC1(CCCCC1)O3	9	-20	-4	-0.7	5173	·	·
O=C1CN=C(c2ccccc2)c2ccccc2N1Cc1ccc(C(F)(F)F)cc1	1	·	2	2.4	8287	8	-2
COc1ccccc1C(=O)NCC(=O)OC(C)C(=O)NC(=O)NC1CCCCC1 (stereo not drawn)	2	-10	-2	9.3	2386	6	3
CCOC(=O)N1CCN(C(=O)CN(C)S(=O)(=O)c2ccc(OCC)cc2)CC1	6	-11	-2	2.4	3195	1	-1
CC1CN(S(=O)(=O)c2cccc(C(=O)NCc3ccco3)c2)CC(C)O1 (stereo not drawn)	-4	-23	·	-2.6	3377	0	5
Cc1cccc(C2c3[nH]c4ccccc4c3CCN2C(=O)c2noc3c2CCCC3)n1 (stereo not drawn)	-2	-18	15	1.9	4306	18	2
COc1ccc(/C=C(\C#N)C(=O)Nc2cc(S(=O)(=O)N3CCCCC3)ccc2N2CCCCC2)cc1	3	-12	-18	-5.2	1692	-5	4
Cc1ccc(C(=O)NCCSCc2ccccc2)cc1[N+](=O)[O-]	-2	-18	-10	-1.5	2110	11	-3
CCOC(=O)c1c(C)[nH]c(C)c1C(=O)CN1C(=O)NC2(CCC(C)CC2)C1=O (stereo not drawn)	10	-4	3	6.8	2075	·	·

A second format for two compounds above.
Fields – Sa ugtP lethal, PrP 5UTR inh, BJeLR lethal, RN4220 kill, Autofluor counter, Mtb hypoxia rep, Mtb hypoxia rep growth
COc1ccccc1C(=O)NCC(=O)OC(C)C(=O)NC(=O)NC1CCCCC1 (stereo not drawn)
  2, -10, -2, 9.3, 2386, 6, 3
N#CC1=C(N)Oc2cc(O)ccc2C1C1CCCCC1 (stereo not drawn)
  -11, -17, 13, -2.8, 4808, ·, ·

Next section:
structure	Sa ugtP lethal	PrP 5UTR inh	BJeLR lethal	RN4220 kill	Autofluor counter	Mtb hypoxia rep	Mtb hypoxia rep growth
Nc1nc(Nc2ccccc2)nc(NCc2ccccc2)c1[N+](=O)[O-]	4	-13	-3	-8.3	4204	2	4
O=C(CCCC(=O)N(CC(=O)NC1CCCCC1)c1ccc(F)cc1)Nc1ccccn1	8	-14	-4	0.9	3155	-6	-3
CCOC(=O)c1cc(-c2ccc(OC(F)F)cc2)nc2nc(SC)[nH]c(=O)c12	74	-25	8	4.1	2558	13	1
COc1ccc(C(=O)NCc2nnc(SCC(=O)Nc3cc(C)on3)o2)cc1OC	3	-74	0	4.2	4331	11	7
Cc1csc(CN(C)C(=O)CC2C(=O)NCCN2Cc2ccc(-c3ccccc3)cc2)n1 (stereo not drawn)	9	3	-3	9.3	4402	-6	-4
CN1CCN(N=Cc2ccc(OCc3ccccc3)cc2)CC1	20	·	·	6.1	·	5	11
CC(=O)C1=C(O)C(=O)N(c2ccc(S(=O)(=O)Nc3nccs3)cc2)C1c1ccc(F)cc1 (stereo not drawn)	-1	-8	0	1.3	4638	19	15
Cc1cc(C)n2ncc(/C(N)=N/OC(=O)Nc3ccccc3)c2n1	3	-25	-2	3.2	4718	-2	13
COc1ccc(C(=O)NNC(=O)COC(=O)c2sccc2C)cc1	2	-16	·	0.7	4510	6	4
Cc1ccc(C(=O)NCC(=O)N(C)CC(=O)Nc2ccccc2Br)s1	13	-19	·	7.9	3007	3	-6
COc1ccc(S(=O)(=O)NCc2ccc(C(=O)N3CCc4ccccc4C3)cc2)cc1	-1	-38	8	11	2832	-5	1
COc1ccc([C@H]2/C=C\CN(S(=O)(=O)c3ccc4ccccc4c3)[C@@H](C)C(=O)N2Cc2ccc(F)cc2)cc1	·	-3	3	·	4544	·	·

(continued)
structure	Sa ugtP lethal	PrP 5UTR inh	BJeLR lethal	RN4220 kill	Autofluor counter	Mtb hypoxia rep	Mtb hypoxia rep growth
O=C(Cc1ccccc1)Nc1ccc(NC(=O)c2ccco2)cc1Cl	8	-7	-6	1.6	6444	-2	5
COc1ccc(C(=O)Nc2ccccc2C(=O)NC(Cc2ccc(O)cc2)C(=O)NNC(=O)c2ccc(C)cc2)cc1 (stereo not drawn)	-1	0	-2	3.4	11575	-2	-3
CC(C)=CC(=O)O[C@H]1[C@@H]2[C@H](C)C(=O)O[C@@H]2C[C@@H](C)[C@@H]2[C@@H](O)CC(=O)[C@]21C	·	-21	-1	·	3433	·	·
CCOCC(=O)Nc1nc2ccccc2s1	0	-19	-3	-12	2929	4	7
O=C(N=Nc1c(O)[nH]c2ccc(Br)cc12)c1cc(-c2cccc3ccccc23)n[nH]1	·	-14	-2	·	2412	·	·
Cc1ccc(S(=O)(=O)N2CCOCC2)cc1NC(=O)CSc1cccc[n+]1[O-]	-7	-5	5	0.8	2534	-9	5
CCN1C(=O)/C(=C\N(C)C)SC1=NS(=O)(=O)c1ccc(C)cc1	2	·	·	5.2	·	-5	5
COC(=O)/C=C1\N/C(=N\c2nc(C)cc(C)n2)N(c2ccc(C)c(C)c2)C1=O	·	-16	2	·	9200	·	·
O=S(=O)(NC1=NCCCCC1)c1cccs1	1	-7	-5	1.6	12387	8	8
COc1ccc(C(=O)Nc2ccccc2-c2nnn(CC(=O)Nc3ccc4c(c3)OCCO4)n2)cc1	·	-17	-3	·	20699*	·	·
O=C(COC(=O)c1ccc(CO)cc1)NCc1cccs1	7	-23	-5	6.4	3255	6	7
COC(=O)c1ccc(C2=NOC(C)(c3nnc(-c4cccc(Cl)c4)o3)C2)cc1 (stereo not drawn)	-2	-9	3	4.3	4179	10	10

Continued.
structure	Sa ugtP lethal	PrP 5UTR inh	BJeLR lethal	RN4220 kill	Autofluor counter	Mtb hypoxia rep	Mtb hypoxia rep growth
NC(=O)C1CNc2ccccc2O1 (stereo not drawn)	7	3	0	3.5	2116	·	·
O=C(Cc1ccc([N+](=O)[O-])cc1)Nc1ccc(C(=O)N2CCOCC2)cc1	1	-5	-13	6.7	4654	-6	2
O=C(NN=Cc1ccc(O)c(O)c1)c1cc(-c2ccccc2)nc2ccccc12	1	·	·	4.1	·	11	6
CC(=O)C[C@H](O)CC(=O)[C@H]1OC(=O)[C@@H](C)C/C=C\Cc2ccccc21	-1	-13	·	4.0	3950	-1	4
COCCCNC(=O)Cn1cc(/C=C(\C#N)C(=O)N2CCN(c3ccccc3)CC2)c2ccccc21	1	-16	-6	1.0	2449	3	-17
CCN(CC)CC(=O)c1c[nH]c2ccc(OC)cc12	0	-1	3	0.7	3820	·	·
CCOc1ccc(-c2nnc(SCC(=O)N3CCNC3=O)o2)cc1	-1	-60	·	8.8	5295	5	6
CCC(C(=O)NC1C(=O)N2C(C(=O)O)=C(CSc3nnc(C)s3)CSC12)c1ccccc1 (stereo not drawn)	100*	-10	·	100*	3914	·	·

Some values from the entries so far:
RN4220 kill, CC(=O)C[C@H](O)CC(=O)[C@H]1OC(=O)[C@@H](C)C/C=C\Cc2ccccc21 stands at 4.0
PrP 5UTR inh, Cc1c(CC(=O)N2CCC(C(N)=O)CC2)c(=O)oc2cc3c(cc12)CCC1(CCCCC1)O3 stands at -20
BJeLR lethal, CC/C(=N\NC(=O)c1nnn(-c2nonc2N)c1-c1ccc2c(c1)OCO2)c1ccccc1 stands at -8
BJeLR lethal, Cc1csc(CN(C)C(=O)CC2C(=O)NCCN2Cc2ccc(-c3ccccc3)cc2)n1 (stereo not drawn) stands at -3
